Source: PubChem BioAssay (ICCB-Longwood Screening Facility, Harvard Medical School)
Sa growth 42C = inhibitors of Staphylococcus aureus growth at 42 °C | S. aureus RN4220 growth, OD600, 20 h; hits give low values | 170,000 tested, 0.53% active | AID 720641 | relative growth, % (no concentration beside the values);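 active = growth at 42 °C up to 50% and 20 or more points under that at 30 °C, or under 10% at both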;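 note: 300 nL library stock went into each well; scaled to the means of positive and negative controls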
HCMV NEC inh = disrupts HCMV UL50-UL53 complex binding; 190,000 tested, 0.15% active; HTRF UL50-UL53 interaction, normalized percent inhibition; inhibition, % (test concentration not listed);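 active = both replicates at 50% or more, plus weaker picks with an unusually low signal ratio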;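 note: stock transfer was 100 nL into about 20 µL; 0% = negative control wells and 100% = wells with untagged competitor protein; inactives centre near -12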
GIV-Gai inh = GIV-Galpha-i interaction inhibition | P08753 | Galpha-i3/FITC-GIV peptide fluorescence polarization, 90 min; hits give low values; scaled: aluminum fluoride 0%, vehicle 100% | percent of control (FP), % (concentration not given with the values) | 210,000 tested, 0.42% active | AID 1224905;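 active = replicate mean at 85% of control or lower, very high polarization wells dropped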;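 note: wells of about 15 µL received 100 nL stock; the first replicate is given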
Target sequence (P08753 whole entry, looked up): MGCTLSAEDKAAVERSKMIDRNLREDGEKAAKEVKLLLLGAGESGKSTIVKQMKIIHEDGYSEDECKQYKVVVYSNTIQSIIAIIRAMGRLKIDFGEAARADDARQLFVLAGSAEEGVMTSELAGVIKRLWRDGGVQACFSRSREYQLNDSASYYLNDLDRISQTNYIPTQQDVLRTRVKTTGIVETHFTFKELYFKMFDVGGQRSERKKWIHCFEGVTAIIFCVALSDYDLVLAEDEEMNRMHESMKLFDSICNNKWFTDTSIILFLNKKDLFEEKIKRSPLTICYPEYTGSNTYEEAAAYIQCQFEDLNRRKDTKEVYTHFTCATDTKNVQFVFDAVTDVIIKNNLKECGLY
Sa growth 42C second temp = recorded beside Sa growth 42C, whose call it bears; relative growth, %; measured here: growth at 30 °C;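 optical density after 20 h as mean of two plates; 100% = untreated growth and lower means inhibition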
Starred values were filed as active, the others as inactive; nt = no result given; & = joins results of further samples. An unsorted share of the library. Share with any hit: about 0.83%.

SMILES | Sa growth 42C | Sa growth 42C second temp | HCMV NEC inh | GIV-Gai inh
CCS(=O)(=O)N1CCc2cc(C(=O)NC(C)c3ccccc3)ccc21 (stereo unspecified) | 107 | 92 | -8 | 101
CC(=O)Oc1ccc2cc(-c3nc4c(s3)CCc3ccccc3-4)c(=O)oc2c1 | 94 | 69 | nt | -79*
CC(=O)Nc1ccccc1-c1nnc(SCC(=O)Nc2ccccc2Cl)[nH]c1=O | nt | nt | -16 | 96
COc1ccc(N2C(=O)C3C4C=CC(O4)C3C2=O)c([N+](=O)[O-])c1 (stereo unspecified) | nt | nt | -50 | 102
CC1CN(S(=O)(=O)c2c[nH]c(=O)[nH]c2=O)CC(C)O1 (stereo unspecified) | 109 | 100 | 15 | 104
COc1ccc(C2=Cc3ccccc3C(C)(C)O2)cc1 | 129 | 89 | nt | 106
CS(=O)(=O)N(CC(=O)Nc1ccc(S(=O)(=O)N2CCCCC2)cc1)c1ccccc1F | 88 | 88 | -6 | 101
CCCN1C(=S)NS(=O)(=O)c2ccccc21 | 95 | 89 | -16 | 105
CCOC(=O)c1sc(=Nc2ccccc2)n(Cc2ccccc2)c1C | 77 | 95 | nt | 104
CC(C)(C)NC(=O)c1c(F)cccc1F | 108 | 109 | 6 | 104
CCC(C)(C(=O)Nc1cccc(C)c1)N1CCC1=O (stereo unspecified) | 116 | 88 | -6 | nt
Cc1ccc(-n2nnc(C(=O)O)c2C)cc1Cl | nt | nt | -15 | 97
CCOC(=O)c1cc(CSc2nnc(SC)s2)on1 | 107 | 82 | 2 | 101
CCN(CC)C(=O)c1ccc2c(c1)N(CC(=O)N1CCOCC1)C(=O)CO2 | nt | nt | -13 | 102
CCC(=O)N1c2ccc(S(=O)(=O)N3CCCCC3)cc2CC1C(=O)NCCOC (stereo unspecified) | nt | nt | 15 | 110
C=CCn1c(=O)c2ccc(C(=O)NCc3ccc4c(c3)OCO4)cc2n(CC(=O)Nc2cccc(F)c2)c1=O | nt | nt | 5 | 96
Cc1nn(-c2ccc(-c3noc(C4CCC4)n3)cc2)cc1C(=O)Nc1ccc2c(c1)OCO2 | nt | nt | -13 | 107
CC1=C(/C=C/C(C)=C/C=C/C(C)=C/C(=O)O)C(C)(C)CCC1 | 86&86 | 58&71 | -35&-23&0&-2&-13&-56&-15 | 98&100
CS(=O)CC(O)(c1ccc(Cl)cc1)c1ccc(Cl)cc1 (stereo unspecified) | 90 | 73 | -10 | 100
COc1ccc(-c2nc3scc(CCNS(=O)(=O)c4ccc5c(c4)OCCO5)n3n2)cc1OC | 115 | 81 | nt | 99

Rewritten as labelled records: part of the list above
> COc1ccc(-c2nc3scc(CCNS(=O)(=O)c4ccc5c(c4)OCCO5)n3n2)cc1OC
  Sa growth 42C = 115; Sa growth 42C second temp = 81; HCMV NEC inh = nt; GIV-Gai inh = 99

> CS(=O)CC(O)(c1ccc(Cl)cc1)c1ccc(Cl)cc1 (stereo unspecified)
  Sa growth 42C = 90; Sa growth 42C second temp = 73; HCMV NEC inh = -10; GIV-Gai inh = 100

Further entries follow.
SMILES | Sa growth 42C | Sa growth 42C second temp | HCMV NEC inh | GIV-Gai inh
O=C(Cn1nc2c(N3CCOCC3)nc3ccccc3n2c1=O)NCC1CCCO1 (stereo unspecified) | nt | nt | -35 | 107
COc1ccc(-c2nc3sc(CCNC(=O)C(=O)Nc4ccc(OC)c(OC)c4)c(C)n3n2)cc1 | 134 | 89 | nt | 100
NS(=O)(=O)c1ccc(NC(=O)Cn2cnc(S(=O)(=O)N3CCCCC3)c2)cc1 | nt | nt | -32 | 100
COC(=O)c1ccc(COC(=O)Cn2c(C)csc2=O)o1 | 86 | 94 | -11 | nt
CCOC(=O)c1cc(CSc2nc3ncccc3[nH]2)on1 | 99 | 92 | -20 | 100
O=C(Cc1c(Cl)cccc1Cl)N1CCN(S(=O)(=O)c2cccs2)CC1 | 104 | 92 | -20 | nt
COc1ccc(N2CCN(C(=O)COC(=O)c3cc[n+]([O-])cc3)CC2)cc1 | 97 | 86 | -43 | nt
COc1cc(C=C2C(=O)NC(=O)NC2=O)cc(Cl)c1OCc1ccc(Cl)cc1 | nt | nt | 72* | 87
COCC(C)N=C1NN=C(c2cc(C)n(Cc3ccccc3Cl)c2C)CS1 (stereo unspecified) | 65 | 36 | -16 | nt
Cc1ccc(NC(=O)CC2(C)Nc3ccccc3C(=O)N2c2ccccc2C)c(C)c1 (stereo unspecified) | 105 | 94 | 1 | nt
NC(=S)Cc1nc2ccccc2s1 | 58 | 52 | -50 | nt
CC(=O)c1ccc(NC(=O)C2=CC(c3cccs3)=NS(=O)(=O)N2C)cc1 | 110 | 71 | -17 | 102
CNC(=O)CN1C(=O)C2C3C=CC(C3)C2C1=O (stereo unspecified) | 116 | 97 | nt | 102
Oc1sc(-c2ccccc2)cc1C=Nc1ccccc1 | 96 | 103 | nt | 84*
COc1cc(/C=C2\SC(=S)N(NC(=O)c3ccccc3[N+](=O)[O-])C2=O)cc(OC)c1OC | nt | nt | -46 | 102
CCOC(=O)C1=C(N)CC(c2ccccc2)NC1c1ccccc1 (stereo unspecified) | 94 | 83 | 6 | nt
COc1ccc(OC)c2sc(NC(=O)C3CC3)nc12 | 100 | 84 | -41 | 99
Cc1ccc(S(=O)(=O)N2CC=C(C(=O)NCC3CCCO3)CC2)cc1 (stereo unspecified) | 97 | 86 | 4 | 109
CC(NCc1ccc2c(c1)n(C)c(=O)n2C)c1ccccc1 (stereo unspecified) | 107 | 85 | -24 | 98
CC(=O)c1cccc(NS(=O)(=O)c2ccc3[nH]c4c(c3c2)CCCCCC4)c1 | 92 | 89 | nt | 102
CC1(C)Oc2ccc3ccc(=O)oc3c2C(/C=N/O)C1=O (stereo unspecified) | 131 | 84 | nt | 108
C/C(N)=C(/C#N)C(=O)CSc1nncn1C | 86 | 92 | -9 | nt
Cc1nn(-c2ccccc2)nc1-c1n[nH]c(=S)n1-c1ccc(Cl)cc1 | 100 | 101 | -3 | 108
O=C(OCc1cc(Cl)ccc1OC(F)F)c1cccnc1 | 86 | 80 | -30 | nt
O=C(O)c1cc(NC(=O)C2CC2)cc(C(=O)O)c1 | 101 | 100 | -6 | 108
Cc1ccc(CNC(=O)c2ccc3c(c2)c(C)c(C)n3Cc2ccccc2)o1 | 89 | 81 | nt | 110
CCOC(=O)C1C(=O)C(C(=O)OCC)C(c2cccnc2)NC1c1cccnc1 (stereo unspecified) | 83 | 79 | -17 | 98
Cc1ccc(NC(=O)CSc2nc3ccccc3nc2Cc2ccccc2)c(C)c1 | 98 | 98 | nt | 101
CCN1C(=O)c2ccccc2Sc2ccc(NC(=O)Cc3ccc(OC)cc3)cc21 | 94 | 100 | nt | 100
CC(Sc1nnc(-c2ccncc2)o1)C(=O)Nc1ccc2c(c1)OCCO2 (stereo unspecified) | nt | nt | -17 | 98
CN[C@@H]1C(O)[C@@H](O[C@@H]2[C@@H](O)[C@H](O[C@H]3OC(CN)=CC[C@H]3N)[C@@H](N)C[C@H]2N)OC[C@]1(C)O (stereo partly specified) | 98 | 90 | -34 | nt
Cn1c(=O)cc(SCC(=O)NCC2COc3ccccc3O2)c2ccc(Cl)cc21 (stereo unspecified) | nt | nt | -21 | 94
CCOc1ccc(NC(=O)c2[nH]c(C)c(S(=O)(=O)N3CCCCC3)c2C)cc1 | nt | nt | -32 | 106
COc1ccc(C(=O)NCc2ccccc2OC)cc1 | 102 | 82 | 6 | 98
Cc1cc(F)ccc1NCc1ccc2c(c1)OCCO2 | 95 | 76 | -4 | 105
CCN1C/C(=C/c2ccc(O)cc2)C(=O)/C(=C/c2ccc(O)cc2)C1 | 104 | 91 | -14 | nt
Cc1cccc(C2N3CC4(C)CN2CC(C)(C3)C4O)c1 (stereo unspecified) | nt | nt | -11 | 116&95
CS/C(NCc1cccnc1)=C(/C#N)C(=O)c1cccs1 | 98 | 93 | -1 | 99
NS(=O)(=O)c1ccc(N2CCN(CCOc3ccc(Cl)cc3)CC2)nc1 | 109 | 86 | -21 | nt
COc1ccc(NC(=O)c2c(C)oc3ccc(OCc4ccccc4)cc23)cc1 | nt | nt | -12 | 101
CC1=CC(=C(C#N)C#N)C=C(C)N1CCc1ccccc1 | 94 | 86 | -24 | 107
O=C(/C=C/c1cccs1)Oc1ccc(I)cc1 | 118 | 100 | 5 | 105
Cc1noc(C)c1-c1nc(CSc2n[nH]c(=O)n2C2CC2)no1 | 107 | 86 | -24 | 101
OC(CNCc1ccccc1)COCc1ccc(Cl)cc1 (stereo unspecified) | 99 | 101 | -2 | nt
COc1cc(NS(=O)(=O)c2cnc(N)nc2)cc(OC)c1 | 98 | 83 | nt | 106
Cc1ccc(C(=O)Nc2cc3c(cc2N2CCCC2)n(C)c(=O)c(=O)n3C)cc1 | 83 | 85 | nt | 97
COc1ccc(-c2cc(C(F)(F)F)nc(SCCC(=O)N3CCCC3)n2)cc1 | 87 | 100 | nt | 102
O=C(CCCCl)Nc1ccc(Cl)cn1 | nt | nt | -17 | 104
CN1CCSc2ccc(C(=O)NC3CCCCC3)cc21 | 108 | 99 | 3 | 104
CCn1ccc2cc(S(=O)(=O)N3CCCN(C(=O)Nc4cccc(SC)c4)CC3)ccc21 | 100 | 95 | nt | 97

3 compounds out of the list above, ordered by the number in Sa growth 42C, smallest number first:
molecule	Sa growth 42C
Cc1ccc(C(=O)Nc2cc3c(cc2N2CCCC2)n(C)c(=O)c(=O)n3C)cc1	83
COc1ccc(-c2cc(C(F)(F)F)nc(SCCC(=O)N3CCCC3)n2)cc1	87
CC1=CC(=C(C#N)C#N)C=C(C)N1CCc1ccccc1	94

Later entries
SMILES | Sa growth 42C | Sa growth 42C second temp | HCMV NEC inh | GIV-Gai inh
CCN(CC)S(=O)(=O)c1ccc2[nH]c3nc(SCC(=O)Nc4ccc(C)c(Cl)c4)nnc3c2c1 | 103 | 98 | 0 | 110
Cc1ccc(C)c(Nc2cc(C(=O)NC3CCCCC3)c3ccccc3n2)c1 | 106 | 93 | -6 | 100
Nc1ccc(S(=O)(=O)NCCO)cc1 | 107 | 108 | -8 | 104
CCN(CC)Cc1cc(O)c(CN(CC)CC)cc1O | 109 | 92 | -16 | nt
N#CCC(c1ccccc1)c1ccc2c(c1)OCO2 (stereo unspecified) | 98 | 68 | -5 | 105
Cc1ccc(NC(=O)Nc2cn(C)c(=O)c3ccccc23)c(Cl)c1 | 93 | 92 | nt | 102
O=C(NCC1COc2ccccc2O1)c1ncoc1-c1ccc2ccccc2c1 (stereo unspecified) | 100 | 83 | -4 | 100
COc1ccc(Nc2nc(N)nc(CSC(=S)N3CCOCC3)n2)cc1 | 93 | 85 | -34 | 98
CN(C)c1ccc(C(F)(F)F)cn1 | 107 | 86 | -2 | 101
CCCSc1nsc(SCCC)c1C(N)=O | 107 | 98 | -18 | 99
CC1CC(C)(C)CC2(C1)NC(=O)N(c1ccccc1)N2 (stereo unspecified) | 70 | 95 | -13 | 101
FC(F)(F)c1cc(-c2ccccn2)nc2c(-c3ccc(Cl)cc3)cnn12 | nt | nt | -18 | 103
Cn1cnnc1-c1cccc(NS(=O)(=O)c2ccc(N3CCCC3=O)cc2)c1 | 99 | 79 | -11 | 96
COc1cc(OCCN2CCOCC2)ccc1C1C(C#N)=C(N)Oc2nc(C(F)(F)F)[nH]c21 (stereo unspecified) | 74 | 71 | -15 | nt
CCOC(=O)COc1ccc2c(c1)OCO2 | 96 | 99 | -38 | 101
O=C(Cc1ccc(Cl)cc1)NCC(c1cccs1)S(=O)(=O)c1ccccc1 (stereo unspecified) | 95 | 85 | nt | 94
N#C/C(=C\N1CCN(C(c2ccccc2)c2ccccc2)CC1)S(=O)(=O)c1ccccc1 | 105 | 99 | -31 | 104
COc1ccc(Cn2c(C(=O)O)c(CNC3CCCC3)c3ccc(C)cc32)cc1 | 90 | 89 | nt | 106
Cc1ccccc1C(=O)Nc1cccc(C(=O)OCc2cc(=O)n3nc(C4CC4)sc3n2)c1 | 94 | 83 | nt | 99
Cc1ccc(C)c(N2CCN(C(=O)c3[nH]c(C)c(S(=O)(=O)N4CCCC4)c3C)CC2)c1 | nt | nt | -37 | 108

Profiles as entered above. Order of screens: Sa growth 42C, Sa growth 42C second temp, HCMV NEC inh, GIV-Gai inh
Cn1cnnc1-c1cccc(NS(=O)(=O)c2ccc(N3CCCC3=O)cc2)c1 is listed with 99, 79, -11, 96
O=C(Cc1ccc(Cl)cc1)NCC(c1cccs1)S(=O)(=O)c1ccccc1 (stereo unspecified) is listed with 95, 85, nt, 94
N#C/C(=C\N1CCN(C(c2ccccc2)c2ccccc2)CC1)S(=O)(=O)c1ccccc1 is listed with 105, 99, -31, 104

(continued)
SMILES | Sa growth 42C | Sa growth 42C second temp | HCMV NEC inh | GIV-Gai inh
O/N=C1\c2ccccc2-c2c(F)c(F)c(F)c(F)c21 | 107 | 76 | -6 | 103
O=C(NCCc1c[nH]c2ccccc12)C1CC(=O)N(Cc2ccco2)C1 (stereo unspecified) | 98 | 95 | -39 | nt
Cn1c(=O)c2c(nc(NCC3CCCO3)n2Cc2ccc(Cl)cc2)n(C)c1=O (stereo unspecified) | 97 | 84 | -10 | 106
Cc1ccc(OCc2ccc(C(=O)N3c4ccccc4CC3C)cc2)cc1C (stereo unspecified) | 77 | 101 | nt | 107
CCCN1CCN(c2nc(-c3cccs3)nc3ccccc23)CC1 | 89 | 90 | -27 | nt
COc1ccc(C(=O)NCC(c2cccnc2)N2CCN(c3ccccc3F)CC2)cc1OC (stereo unspecified) | 111 | 84 | -22 | 105
